# Source: PubChem (National Center for Advancing Translational Sciences (NCATS))
# NS1 inh: blocks influenza NS1 protein function; S. cerevisiae slowed by influenza A NS1, growth recovery by OD600; Potency, µM (titrated, usually from 46.1 µM), for the others: top-dose activity, positive = more growth; actives 0.4% (n = 270,000); AID 2326; further: actives are rising curves; nearly all actives have a fitted effect of over 50% in size
#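 Recovery from NS1-induced slow growth read by OD600 in budding yeast switched to galactose assay medium (pH 6.0, -URA) at 1:100 dilution. Compound 23 nl per well; the matching strain lacking NS1 serves as control.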
# Cruzain Triton: inhibitors of Trypanosoma cruzi cruzain with detergent; purified cruzain, Z-FR-AMC fluorescence, 0.01% Triton; P25779; Potency, µM, for the others: max response, negative = inhibition, actives largely listed as inhibitors; actives 0.43% (n = 200,000); active means well fitted curve in the direction sought with a large enough effect; inconclusive means small, poorly fitted or top-dose-only effect, or another doubt; inactive means no such curve, though single readings can be large; an effect the other way counts as inactive or inconclusive;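 further: plate controls were neutral wells for no effect and buffer without enzyme for full effect; nearly all actives have a fitted effect of over 40% in size; top concentration of the series not given in the record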
# Target sequence (P25779 123-467 limits assumed): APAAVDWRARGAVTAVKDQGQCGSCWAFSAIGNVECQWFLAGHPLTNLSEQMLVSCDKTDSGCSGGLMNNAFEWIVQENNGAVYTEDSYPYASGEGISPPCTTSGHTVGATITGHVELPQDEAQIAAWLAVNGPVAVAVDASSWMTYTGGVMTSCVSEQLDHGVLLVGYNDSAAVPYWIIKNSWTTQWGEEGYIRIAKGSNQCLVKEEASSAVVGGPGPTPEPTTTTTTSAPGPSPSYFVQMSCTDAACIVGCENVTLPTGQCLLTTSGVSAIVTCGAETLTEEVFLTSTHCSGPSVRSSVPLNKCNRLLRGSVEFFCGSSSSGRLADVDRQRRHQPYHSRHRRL
#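 Enzyme 1.5 nM, Z-FR-AMC 2 uM, NaOAc 100 mM pH 5.5, DTT 5 mM, Triton X-100 0.01%; 15 min RT compound preincubation; kinetic ex360/em450, 60 s delta.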
# Cruzain inh noDet: cruzain (T. cruzi) inhibition without detergent; Potency, µM, for inactives: max response, negative = inhibition, hits mostly inhibitors; actives 2.3% (n = 200,000); P25779; purified cruzain, Z-FR-AMC fluorescence, no detergent; AID 1476; active means well fitted curve in the direction sought with a large enough effect; inconclusive means small, poorly fitted or top-dose-only effect, or another doubt; inactive means no such curve, though single readings can be large; an effect the other way counts as inactive or inconclusive;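 further: plate controls were enzyme without inhibitor for no effect and buffer without enzyme for full effect; nearly all actives have a fitted effect of over 40% in size; top concentration of the series not given in the record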
#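 Detergent-free condition (0.00005% Triton X-100) in acetate buffer pH 5.5 with DTT. 1.5 nM enzyme and compound were pre-mixed 15 min, then 2 uM Z-FR-AMC substrate added; reaction progress from fluorescence change between first and third reads (60 s).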
# SARS PLpro yeast: SARS-CoV PLP inhibition in yeast | S. cerevisiae expressing SARS-CoV PLpro, growth rescue; control for the full effect not named in the record | Potency, µM (top dose mostly 32.9 µM), for inactives: at the top dose activity, positive = growth rescue | actives 0.19% (n = 330,000) | AID 485353; further: 0% is about no effect; nearly all actives have a fitted effect of over 55% in size; growth read by luminescence after 48 h
# RE007 growth inh: less growth of the S. pombe RE007 Vpr strain; actives 0.21% (n = 360,000); S. pombe RE007 Vpr strain, BacTiter-Glo ATP luminescence, 24 h; control for the full effect not named in the record; AID 651644; Potency, µM (series often up to 92.2 µM), inactives show at the highest dose activity change, negative = less growth; active = well fitted falling curve with a large enough effect; inconclusive = small, poorly fitted or top-dose-only effect; inactive = no such curve, though single readings can be large or run the other way;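 further: on the % scale 0 is the no-effect control and ±100 the full control effect; nearly all actives have a fitted effect of over 50% in size; the assay follows cell death caused by Vpr and the record does not say whether a fall means rescue or toxicity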
#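 Fission yeast RE007 carrying one integrated HIV-1 vpr copy, seeded at OD 0.01 in PMG+AL medium with 23 nL pinned compound. Grown 24 h at 30 degrees; viability read by BacTiter-Glo luminescence after 5 min.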
# MARV entry inh: Marburg virus entry inhibition | Marburg virus pseudotyped entry inhibition, cell reporter; control for the full effect not named in the record; about a third of the inactives were read at about 46 µM | Potency, µM (top dose mostly 37.8 µM), for the others: top-dose activity change, negative = inhibition, actives largely listed as inhibitors | actives 1.8% (n = 300,000) | AID 540276; active = well fitted inhibition curve with a large enough effect; inconclusive = small, poorly fitted or top-dose-only effect, or effect the other way; inactive = flat fitted curve, though single readings scatter; tested in HEK293 cells; about a fifth of its hits are not listed in these tables; further: on the % scale 0 is the no-effect control and ±100 the full control effect; luciferase read-out
# 2A StopGo: lowers the luciferase signal of an FMDV 2A StopGo reporter; AID 1159524; Potency, µM (doses to about 57.9 µM), without a hit: top-dose signal change, negative = less light; actives 1.2% (n = 410,000); human cells with a luciferase reporter of 2A StopGo recoding; control for the full effect not named in the record; active = well fitted falling curve with a large enough effect; inconclusive = small, poorly fitted or top-dose-only effect; inactive = no such curve, though single readings can be large or run the other way; tested in HEK293T cells; further: on the % scale 0 is the no-effect control and ±100 the full control effect; nearly all actives have a fitted effect of over 45% in size; luciferase light after 4 h
# Lassa entry inh: Lassa virus entry inhibition; Lassa virus pseudotype entry inhibition, cell reporter; control for the full effect not named in the record; Potency, µM (highest dose often 37.9 µM), for inactives: at the highest dose activity change, negative = inhibition, usual class: inhibitors; AID 540256; actives 1.2% (n = 300,000); active means well fitted inhibition curve with a large enough effect; inconclusive means small, poorly fitted or top-dose-only effect, or effect the other way; inactive means flat fitted curve, though single readings scatter; tested in HEK293 cells; further: on the % scale 0 is the no-effect control and ±100 the full control effect; nearly all actives have a fitted effect of over 50% in size; luciferase read-out
# * = called active by the depositor; ? = inconclusive; nt = no result given; & = joins results of further samples; [ ] = another dose, or the depositor's remark. Unless noted, the call rests on the fitted dose curve; in most records, active means well fitted rising curve with a large enough effect; inconclusive means small, poorly fitted or top-dose-only effect; inactive means no such curve, though single readings can be large or run the other way. Potency means the concentration at half of the fitted maximal effect.
canonical_smiles	NS1 inh	Cruzain Triton	Cruzain inh noDet	SARS PLpro yeast	RE007 growth inh	MARV entry inh	2A StopGo	Lassa entry inh
Cc1ccc(S(=O)(=O)NCCCN2CCCC2)cc1	-5%	nt	nt	1%	4%	nt	0%	nt
CC(/C=N/NC(=O)Cn1nnc(N)n1)=C\c1ccc(C(C)C)cc1	1%	nt	nt	-2%	4%	3%[46.1 µM]	-17%	-3%
CCNCc1cc2cc(C)ccc2[nH]c1=O	5%	-0.9%	-6%	9%	-4%	8%&8%	-12%	?
CCC(C(=O)N1CCC2(CC1)OCCO2)n1c2ccccc2c2nc(=O)cc(C)n21 (centres undefined)	-6%	nt	nt	3%	-1%	-3%[46.1 µM]	-9%	23%[46.1 µM]
Cc1ccc(NC(=O)c2c(O)c3ccccc3n(C)c2=O)nc1	9%	3.9%	18%	4%	-4%	?	24%	?
Cc1cc(C)c2sc(N(CCCN(C)C)C(=O)c3ccc(S(=O)(=O)N(C)Cc4ccccc4)cc3)nc2c1	nt	nt	nt	-1%	13%	?	?	?
CS(=O)(=O)N1CCN(c2ccc(NC(=O)CSc3nnc(-c4ccco4)o3)cc2)CC1	nt	nt	nt	-5%	0%	-11%[46.1 µM]	-11%	1%[46.1 µM]
O=C1N/C(=C/c2ccco2)C(=O)N1Cc1ccccc1F	17%	-6.6%	1%	23%	-18%	-2%	-14%	?
COc1ccc(N2CCN(S(=O)(=O)c3cccs3)CC2)cc1	-25%	-1.6%	-6%	?	8%	19%	-16%	-10%
COc1ccc(CC(=O)NNC(=S)Nc2ccccc2)cc1Cl	nt	nt	nt	3%	-2%	-3%	-5%	9%
COc1cc(S(=O)(=O)NCCCn2ccnc2)ccc1F	5%	nt	nt	-7%	0%	nt	22%	nt
CCOC(=O)c1c(S(=O)(=O)NCC(=O)N2CCN(c3ccccc3)CC2)c(C)n(C)c1C	0%	2.6%	21%	3%	-7%	nt	9%&-14%	5%[46.1 µM]
O=C(O)c1ccn2c(C(=O)c3ccc(Cl)cc3)c(-c3ccccc3)cc2c1	-6%	nt	nt	-3%	?	-27%[14.2 µM]	-22%	-2%
Cc1cccc(NC(=S)NC2CCSc3ccccc32)c1 (centres undefined)	17%	nt	nt	20%	6%	?	7%	7%[46.1 µM]
CC(C)n1cc(C(=O)N2CCCC(N3CCN(c4ccc(F)cc4)CC3)C2)cn1 (centres undefined)	20%	nt	nt	1%	7%	26%[46.1 µM]	-9%	16%[46.1 µM]
COCCN(C)C(=O)CC1C(=O)NCCN1CC(c1ccccc1)c1ccccc1 (centres undefined)	2%	nt	nt	6%	-8%	nt	8%	nt
CCSc1ncc(Cl)c(C(=O)Nc2c(C(=O)Nc3cccc(C)c3)oc3ccccc23)n1	nt	-0.4%	11%	nt	nt	?	-12%	6%[46.1 µM]
COCC(=O)N1CCCC(C(=O)c2ccc(-c3ccccc3)c(F)c2)C1 (centres undefined)	-45%	nt	nt	-5%	1%	-6%[46.1 µM]	19%	?
COc1ccc(N(C(=O)Nc2ccc(Cl)cc2)C2=NCCC2)cc1	-97%	-5.9%	-17%	-19%	-4%	-12%	nt	6.5µM*
S=c1nc(-c2ccccc2)[nH]n1-c1ccccc1	-80%	4.3%	-15%	5%	-4%	?	34%[activator]	3%
O=C(COC(=O)C1c2ccccc2Oc2ccccc21)NC1CCS(=O)(=O)C1 (centres undefined)	-9%	2.2%	-15%	0%	-26%	-14%	-19%	1%
Cn1c(=O)[nH]c(=O)c2c1nc(Br)n2CCSc1ncccn1	-5%	3.4%	1%	1%	1%	1%&1%	-5%	2%
CCOC(=O)N1CCN(S(=O)(=O)c2ccc(OCC)cc2)CC1	-9%	-3.3%	-1%	0%	-2%	-2%	nt	-4%
Cc1ccc(NS(=O)(=O)c2cccc(C(=O)Nc3cccnc3)c2)c(C)c1	nt	nt	nt	1%	-9%	?	?	?
NC(=S)N=Nc1c(O)n(C2OC(=O)c3ccccc32)c2ccccc12 (centres undefined)	22%	-17%	-10%	-1%	-10%	21%	-15%	0%
CN1C(=O)[C@H](Cc2ccc([N+](=O)[O-])cc2)NC1=S	6%	nt	nt	5%	11%	0%[46.1 µM]	5%	?
COc1cc(S(=O)(=O)NCCN2CCOCC2)ccc1-n1cnnn1	nt	nt	nt	0%	2%	?	8%	11%[46.1 µM]
CC1=C(C(=O)Nc2ccccn2)C(c2ccc(Cl)cc2)NC(=S)N1 (centres undefined)	nt	nt	nt	-2%	-11%	8%[46.1 µM]	0%	?
O=C(COC(=O)c1ccc(S(=O)(=O)N2CCOCC2)cc1)NCc1cccs1	nt	nt	nt	-2%	-6%	?	-9%	7%
Cc1cccc(Nc2nc(N)c([N+](=O)[O-])c(N3CCOCC3)n2)c1	-6%	-7.7%	-5%	8%	1%	5.6µM*	?	-2%
Cc1cc2cc(CNC(=O)C3CC3)ccc2n1C	?	10%	-4%	2%	-18%	5%	8%	0%
CC(O)Cn1c(=O)c2c(nc(Br)n2Cc2ccccc2)n(C)c1=O (centres undefined)	2%	-0.6%	-11%	-9%	-1%	-6%	0%	1%
O=C1[C@@H]2[C@H](C(=O)N1Cc1cccnc1)[C@H]1C=C[C@@H]2C1	4%	-5.8%	-4%	9%	-1%	4%	-2%	11%
CCOC(=O)c1ccccc1NC(=O)CSc1c(C)cnc2c1c(=O)n(C)c(=O)n2C	nt	0.3%	-11%	nt	nt	nt	?	8%[46.1 µM]
CCOC(=O)c1sc(/S(C)=N\S(=O)(=O)c2cccc(Cl)c2)c2c1CCC=C2 (centres undefined)	-1%	nt	nt	-1%	-10%	nt	-7%	nt
COC(=O)[C@H](Cc1ccccc1)NC(=O)Nc1ccc(OC)cc1	2%	nt	nt	-2%	-21%	2%[46.1 µM]	-6%	21%[46.1 µM]
O=C(Nc1ccccc1F)c1ccc(-n2cncn2)nc1	-48%	-3.4%	7%	4%	4%	-10%	4%	8%
COC(=O)c1nnn(-c2cccc(C)c2)c1C(=O)OC	nt	-1.5%	-11%	nt	nt	-1%[46.1 µM]	-25%	2%[46.1 µM]
Cc1ccc(S(=O)(=O)N(CC(=O)NCCSc2ccccn2)c2ccc(C)c(C)c2)cc1	-1%	-5.4%	19%	-30%	13%	?	0%	?
CCOC(=O)c1c(C)n(C)c2ccc(O)c(CN(CC)CC)c12	-57%	-2.9%	-2%	-2%	-6%	?	-17%	0%
COC(=O)c1cc(OC)c(OC)cc1NC(=O)CSc1ccccc1	-22%	-9.2%	?	-2%	-7%	-11%	?	?
O=C(/C=C/c1ccccc1[N+](=O)[O-])N1CCCCC1	nt	nt	nt	-1%	-5%	4%	-14%	2%
Cc1cc2oc(C(=O)N(Cc3cccs3)C3CCS(=O)(=O)C3)cc(=O)c2cc1Cl (centres undefined)	-11%	nt	nt	1%	5%	6%	-23%	-12%
C/C(=C\C(=O)c1ccc(Br)cc1)Nc1ccc(Cl)cc1	11%	-7.5%	-22%	1%	-2%	?	38%[activator]	18%
CCCCCc1ccc(-c2ccc(Br)cc2)nc1	nt	0.5%	-3%	nt	nt	nt	27%	?
Cc1ccccc1NC(=O)C(C)c1ccc(-c2ccccc2)c(F)c1 (centres undefined)	1%	-2.9%	-4%	1%	5%	-13%	?	-1%
CCOC(=O)c1nn(C)c(C)c1Cl	-3%	0.9%	2%	-3%	26%	19%	9%	?
CSCC[C@H](NC(=O)N1CCn2c1nc1ccccc12)C(=O)NC1CCCCC1	-1%	nt	nt	7%	-1%	-2%[46.1 µM]	37%[activator]	?
O=C(COc1cccc2cccnc12)NNC(=O)Nc1ccccc1	2%	nt	nt	0%	6%	nt	-18%	nt
COc1ccc(-c2nc(SCC(=O)N3CCCC3)n[nH]2)cc1	0%	nt	nt	2%	1%	-12%[46.1 µM]	3%	-28%[46.1 µM]
Cc1ccc(C(=O)NCC(=O)OCC(=O)Nc2cc(C)c(C)cc2[N+](=O)[O-])cc1	-20%	8.9µM*	10µM*	-17%	-5%	16%	1%	16%
CN(C)CCCNCCCNC(=O)c1ccco1	-3%	1.9%	1%	9%	-21%&11%	?	-20%&33%	6%&2%
Cn1c(=O)[nH]c(=O)c2c1nc(CN1CCN(c3cccc(Cl)c3)CC1)n2Cc1ccccc1Cl	-66%	-12%	?	-2%	-4%	nt	-15%	nt
Cc1cc(=O)oc2cc(OCC(O)CN3CCc4ccccc4C3)ccc12 (centres undefined)	-13%	-4.5%	-4%	-2%	-6%	?	-9%	?
CCC(C)n1c(SCc2ccc(F)cc2Cl)nc2ccsc2c1=O (centres undefined)	nt	2.4%	23%	nt	nt	nt	?	?
CCOC(=O)c1cc(S(=O)(=O)Nc2cccc(OC)c2)cn1C	-11%	nt	nt	-3%	-2%	nt	-21%	nt
COc1ccccc1N1CCN(C(=O)c2cc3c(C)nc4ccccc4c3o2)CC1	-75%	nt	nt	nt	10%	?	?	11µM*
S=C(NNC(=S)NC1CC2C=CC1C2)NC1CC2C=CC1C2 (centres undefined)	-2%	nt	nt	0%	-3%	4%[14.2 µM]	3%	?
Cc1cc(C)n2nc(S(=O)(=O)N(C)c3ccccc3)nc2n1	-20%	1.9%	-1%	13%	8%	nt	2%	nt
CCOC(=O)c1cnc2ccc(F)cc2c1Nc1ccc2c(c1)OCCO2	-10%	-8.9%	0%	25%	33%	?	?	-36%

# Later entries.
canonical_smiles	NS1 inh	Cruzain Triton	Cruzain inh noDet	SARS PLpro yeast	RE007 growth inh	MARV entry inh	2A StopGo	Lassa entry inh
COc1ccc(CNC(=O)c2cc(-c3ccccc3O)n[nH]2)cc1	?	1.2%	-9%	4%	-3%	-1%	24%	-19%
CCOC(=O)C1CCN(Cc2ccc(F)c(Br)c2)CC1	-8%	0.9%	2%	-5%	-11%	18%	-10%	3%
COc1ccc(C(=O)N(Cc2cccs2)C2CCS(=O)(=O)C2)cc1 (centres undefined)	-6%	nt	nt	1%	12%	25%[46.1 µM]	-13%	5%
O=C(C1=C[C@H](C2CCCCC2)C[C@H](OCCCCO)O1)N1CCOCC1	-1%	nt	nt	1%	17%	nt	-2%	nt
